Vif A3G: HIV-1 Vif–A3G interaction blockers – biochemical, TR-FRET, GST-Vif 1-94, biotin-A3G peptide, dose response retest, primary screen (AID 1117319) | TR-FRET GST-Vif / biotin-A3G peptide binding; higher % means a stronger effect; test concentration not given here; strong numbers were not always called active | one-dose inhibition, %; IC50 in µM for titrated hits | actives 0.57% (n = 260,000);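 active means above the screen mean plus three standard deviations and confirmed in dose response; inconclusive means results disagree or hit not tested in dose response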;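 further: Vif residues 1-94 fused to GST binding biotinylated APOBEC3G peptide 110-148; 0% = full assay without inhibitor and 100% = GST in place of GST-Vif; retest series ran down from 100 µM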
RanGTP-Impb inh: inhibitors of RanGTP-importin-beta interaction, primary screen, biochemical, FRET, CFP-Ran, YFP-importin-beta, homogeneous; actives 1.1% (n = 300,000); inhibition, % (concentration not given with the values); cell-free CFP-Ran/YFP-importin-beta FRET ratio;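 active means most replicates above 15%; inconclusive means exactly half above 15%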;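 further: 0% = DMSO wells and 100% = Ran loaded with GDP instead of GTP; wells of about 40 µL received 100 nL stock; the first replicate is given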
AF4-AF9 inh: MLL-AF4/AF9 protein interaction inhibition; AID 651704; AlphaScreen, biotin-AF4 peptide binding to FLAG-AF9; P42568; actives 0.47% (n = 350,000); inhibition, % at 10 µM;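 active means every replicate reaching a set inhibition limit, whatever the replicate mean, cut at about 25% in these data; inconclusive means mean inhibition reaches that limit but some replicates miss it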;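 further: 0% = plate neutral control median and 100% = total signal loss; the record names both 10 and 1 µM as test concentration; the first replicate is given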
LANA-H2B inh: blocks KSHV LANA binding to histone H2A/H2B | Q9QR71 | cell-free LANA-H2A/H2B peptide, fluorescence polarization | inhibition, % (no concentration beside the values) | actives 0.6% (n = 320,000) | AID 2629; in the data active means inhibition mostly above about 10%, no sharp cut-off; inactive means mostly below about 6.7%;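 further: stock transfer was 7.5 nL into about 10 µL; 0% = median of vehicle wells and 100% = median of positive control wells; one replicate is shown; the record names a cut of 25% in any replicate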
Target sequence (Q9QR71 whole entry, looked up): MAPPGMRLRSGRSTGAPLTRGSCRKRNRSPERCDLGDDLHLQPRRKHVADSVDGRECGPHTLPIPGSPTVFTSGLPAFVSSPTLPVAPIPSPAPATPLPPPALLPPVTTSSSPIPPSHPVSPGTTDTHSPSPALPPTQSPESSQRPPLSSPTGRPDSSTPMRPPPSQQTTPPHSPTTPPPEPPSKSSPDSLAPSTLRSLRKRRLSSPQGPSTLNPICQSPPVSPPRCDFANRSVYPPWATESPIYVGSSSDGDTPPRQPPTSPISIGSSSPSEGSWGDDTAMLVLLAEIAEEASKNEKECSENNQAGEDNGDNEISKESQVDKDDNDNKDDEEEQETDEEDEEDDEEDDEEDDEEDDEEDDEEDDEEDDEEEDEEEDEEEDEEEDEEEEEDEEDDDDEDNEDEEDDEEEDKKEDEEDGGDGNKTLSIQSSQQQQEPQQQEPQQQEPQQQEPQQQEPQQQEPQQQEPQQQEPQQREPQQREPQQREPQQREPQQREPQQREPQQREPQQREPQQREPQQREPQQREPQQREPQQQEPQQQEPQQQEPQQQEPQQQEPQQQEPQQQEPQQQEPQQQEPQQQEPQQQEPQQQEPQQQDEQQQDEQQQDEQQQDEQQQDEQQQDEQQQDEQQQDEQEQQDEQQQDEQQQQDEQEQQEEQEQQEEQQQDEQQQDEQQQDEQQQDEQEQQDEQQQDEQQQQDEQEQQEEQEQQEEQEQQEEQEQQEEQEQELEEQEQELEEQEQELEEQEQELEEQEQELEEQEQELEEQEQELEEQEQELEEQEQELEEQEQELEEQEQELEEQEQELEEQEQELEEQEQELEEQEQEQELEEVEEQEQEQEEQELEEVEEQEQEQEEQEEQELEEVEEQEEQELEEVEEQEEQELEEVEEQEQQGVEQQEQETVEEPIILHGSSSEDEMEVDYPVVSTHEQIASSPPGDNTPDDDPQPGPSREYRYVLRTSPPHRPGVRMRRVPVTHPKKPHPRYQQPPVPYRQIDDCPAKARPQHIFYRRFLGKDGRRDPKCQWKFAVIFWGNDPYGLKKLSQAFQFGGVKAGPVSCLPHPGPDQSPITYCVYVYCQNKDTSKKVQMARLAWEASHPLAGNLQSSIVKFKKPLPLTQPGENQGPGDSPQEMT
T cruzi repl: blocks replication of Trypanosoma cruzi | T. cruzi beta-gal in NIH3T3, luminescence, 90 h | inhibition, % (test concentration not listed) | actives 1.4% (n = 300,000) | AID 1885;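 active means mean inhibition across valid replicates above about 55%, limit read from the data; inconclusive means mean below that limit but half or more replicates reach it; inactive means mean below it, under half of replicates reach it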;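 further: signal also drops with host cell toxicity which is not excluded here; 0% = plate median of DMSO wells and 100% = zero luminescence signal; higher percent means less beta-gal luminescence so fewer parasites; stock transfer was 50 nL into about 50 µL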
Beta apoptosis: beta cell apoptosis inhibition | INS-1E cytokine-induced death, ATP luminescence, 48 h; percent of positive-control rescue, neutral wells zero | protection from apoptosis, % (no concentration beside the values) | actives 0.8% (n = 300,000) | AID 435005;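 active means all replicates at 75% or more, or half of them and the mean; inconclusive means half reach 75% but not the mean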;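 further: 0% = cytokine-treated negative control wells and 100% = positive control rescue; higher means more ATP so stronger rescue from cytokine killing; wells of about 40 µL received 100 nL stock; the first replicate is given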
Bfl-1 A1 inh: inhibitors of the anti-apoptotic protein A1, read as caspase activation; actives 0.066% (n = 330,000); MEF A1-2A-BIM cells, Caspase-Glo 3/7 luminescence, 3 h; percent of clofoctol response, vehicle zero; caspase activation, % (test concentration not listed); AID 2462;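 active means over half of replicate activation scores above 10%, or exactly half above 10 with the replicate mean above 10; inconclusive means replicate mean below 10 yet half the replicates above 10; inactive means over half of replicates below 10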;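 further: wells of about 30 µL received 50 nL stock; many hits fall short of the cut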
Calb FLC: C. albicans growth modulation with fluconazole; C. albicans CaCi-2 (fluconazole-resistant clinical isolate) + fluconazole, Alamar Blue growth, 48 h; growth inhibition, % (concentration not given with the values); actives 0.57% (n = 300,000); AID 1979;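 active means most replicates above 75%; inconclusive means exactly half above 75%; inactive means most below 75%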;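 further: all wells also contain fluconazole at 8 µg/ml as a sub-toxic cotreatment; 0% = median of DMSO wells and 100% = median of geldanamycin control wells; wells of about 8 µL received 7.5 nL stock; the first replicate is given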
Starred values were filed as active, the others as inactive; ? = inconclusive; . = no result given.

SMILES	Vif A3G	RanGTP-Impb inh	AF4-AF9 inh	LANA-H2B inh	T cruzi repl	Beta apoptosis	Bfl-1 A1 inh	Calb FLC
CN(c1ccc(C(=O)N2CCOCC2)cc1)S(=O)(=O)c1ccc(Cl)cc1	3%	2.3	1.7	-7.1	3	8	0.3	-2
CCOC(=O)C1=C(CSc2nc(-c3ccncc3)ccc2C#N)OC(N)=C(C#N)C1c1cccnc1 (stereo not given)	18%	-11	.	5.4	-7	-4	2.0	-1
O=C(CSCc1ccc(Cl)cc1)c1ccco1	15%	-0.8	.	-5.3	2	-5	-0.3	0
Cc1onc(-c2ccccc2Cl)c1C(=O)Nc1cc(=O)n(C)c(=O)n1C	.	0.3	.	-0.7	3	0	-0.2	-5
CCN(C(=O)c1cn(C)c(=O)c2cc(OC)c(OC)cc12)c1ccccc1C	15%	.	.	-2.3	.	-3	0.8	.
CC(=O)Nc1ccc(/C=N/NC(=O)CCN2CCN(c3ccccc3)CC2)cc1	4%	-1.6	-1.0	2.4	-11	-2	0.3	3
CCOc1ccc(CNC(c2ccccc2)c2ccccc2)cc1	.	33*	-5.4	-4.3	24	-2	1.1	-26
CNC(=O)n1ccc(C(=O)N2CCCCC2)n1	32%	3.0	.	3.4	-2	-5	0.5	-10
CCCN(CC(=O)Nc1ccccc1C)C(=O)CCl	13%	2.1	-0.9	6.4	78*	-4	0.6	-15
CC(SCC(=O)NC12CC3CC(CC(C3)C1)C2)C(=O)O (stereo not given)	7%	-4.6	-3.3	-5.2	-21	-5	0.5	23

The closing 2 records of the section before open the next one.
SMILES	Vif A3G	RanGTP-Impb inh	AF4-AF9 inh	LANA-H2B inh	T cruzi repl	Beta apoptosis	Bfl-1 A1 inh	Calb FLC
CCCN(CC(=O)Nc1ccccc1C)C(=O)CCl	13%	2.1	-0.9	6.4	78*	-4	0.6	-15
CC(SCC(=O)NC12CC3CC(CC(C3)C1)C2)C(=O)O (stereo not given)	7%	-4.6	-3.3	-5.2	-21	-5	0.5	23
CCOc1ccc(-c2ccc(/C=C3/C(=N)N4C(C)=CSC4=NC3=O)o2)c([N+](=O)[O-])c1	.	-7.9	-43	0.9	0	4	0.6	-1
COc1ccc(Cn2nnnc2CN(Cc2cc3cccc(C)c3[nH]c2=O)C2CCCC2)cc1	-4%	6.5	3.5	1.1	21	-6	0.9	47
O=C(Cn1cnc2c(cnn2-c2ccccc2)c1=O)NC1CCCC1	-2%	0.5	-15	-3.6	-15	3	1.4	-2
CC1CC(C)CN(S(=O)(=O)c2ccc(C(=O)NNC(=O)c3ccccc3F)cc2)C1 (stereo not given)	.	.	4.1	-4.0	.	-2	1.0	.
Cc1ccnc(NC(=O)c2ccc(Cl)c(NC(=O)CCc3ccccc3)c2)c1	-2%	24*	-0.6	-1.3	28	.	0.7	-11
CCOC(=O)c1[nH]c2ccc(OC)cc2c1NC(=O)CCN1CCN(Cc2ccccc2)CC1	10%	3.1	.	39*	19	-1	1.0	11
CCOc1ccc(NC(C)c2cc(Cl)ccc2O)cc1 (stereo not given)	14%	-3.9	.	0.8	6	-4	-2.1	7
O=C(c1ccc(=O)[nH]c1)N(Cc1ccco1)C1(C(=O)NC2CCCC2)CCCCC1	0%	4.7	.	6.1	0	-5	-1.9	8
COC(=O)c1sc(NC(=O)/C=C/c2ccc(C)cc2)nc1C	6%	-1.7	.	-1.6	0	-3	-3.6	0
CCOc1cc(C2NC(=S)NC(C)=C2C(=O)Nc2ccccc2)ccc1O (stereo not given)	31%	7.7	-23	1.8	6	5	-0.2	-4
CC(Sc1n[nH]c(N)n1)c1nc2scc(-c3cccs3)c2c(=O)[nH]1 (stereo not given)	2%	1.9	.	.	-18	4	0.7	-3
O=C(CSc1nnc(SCc2ccccc2)s1)N/N=C/c1ccc(C(=O)O)cc1	-13%	1.5	0.4	3.4	6	3	-3.7	-8
COCCCNC(=O)c1cc2c(s1)CS(=O)(=O)C2	1%	-3.4	.	3.9	-13	-3	-1.3	-3
COc1ccc(NC(=O)CSCC(=O)Nc2ccc(S(=O)(=O)N3CCCC3)cc2)cc1	-3%	3.6	-3.6	-5.7	7	0	-1.1	-3
CC1(C)CC(=O)c2c(noc2-c2ccccc2)C1	6%	-0.7	.	4.3	2	-1	-0.3	5
N#CC1(C#N)CC(C=O)=C(N)C1(C#N)CC(=O)C12CC3CC(CC(C3)C1)C2 (stereo not given)	15%	2.9	5.6	-8.7	-7	5	1.4	1
CC(=O)Nc1ccc(C(=O)OCC(=O)NCc2ccc(Cl)cc2)cc1	-1%	-2.6	.	1.8	-1	1	-0.1	-7
CN(CC(=O)Nc1ccc(F)cc1)C(=O)CSc1nnc(Cc2ccccc2)o1	.	.	?	-4.7	.	-5	0.3	.
O=C(COc1ncnc2cc(Cl)ccc12)c1ccccc1	-9%	-2.0	-1.7	-4.0	7	2	1.4	-17
CCOC(=O)c1c(C)nc2sc(C(=O)Nc3ccc(C(C)=O)cc3)c(N)c2c1-c1ccc(OC)cc1	-5%	1.6	.	-1.1	34	18	?	10
CC(C)(CNC(=O)CNC(=O)c1ccccc1F)N1CCOCC1	-7%	.	-0.4	1.3	.	0	2.0	.
Cc1cc(NC(=O)c2cnccn2)no1	13%	4.0	-9.9	.	-13	.	.	2
COc1ccc(C2CC(c3ccco3)n3ncnc3N2)cc1 (stereo not given)	32%	0.3	0.0	0.0	-10	-3	0.1	-2
COCCNC(=O)c1ccc(NC(C)=O)cc1	4%	-4.7	.	4.4	-5	-5	0.1	5
O=C(COC(=O)/C=C/c1ccc([N+](=O)[O-])cc1)Nc1ccc(F)cc1	-7%	.	-2.4	2.0	.	0	0.8	.
O=C(c1ccccc1)N1CCN(c2ncccn2)CC1	.	0.7	2.9	0.6	5	0	2.6	2
COc1cc(NC(=O)c2cc3ccccc3cc2O)c(OC)cc1Cl	-7%	6.5	-0.9	-1.8	-1	111*	0.3	-6
CNc1ccc(Oc2c(F)c(F)nc(F)c2F)cc1	-4%	-2.0	-12	7.1	27	1	0.4	-25
COc1cc(CN2CCCN(C)CC2)c([N+](=O)[O-])cc1OC	.	-2.1	-0.4	1.2	10	-2	0.6	0
Cc1ccc(C(=O)Nc2ccc3c(c2)nc(CCNC(=O)c2ccco2)n3C)cc1	1%	-0.6	-16	3.7	-10	-3	1.2	-1
COc1ccc(C)c2sc(NC(=O)C3CC3)nc12	.	1.5	-4.3	0.3	-17	3	-0.2	-9
CCc1nnc(NS(=O)(=O)c2ccc(NC(=O)/C=C/c3ccccc3Cl)cc2)s1	-13%	0.1	2.1	-6.8	6	0	0.6	-3
CCOC(=O)C1CCCN(C(=O)c2cccc3ccccc23)C1 (stereo not given)	0%	3.4	-1.7	-8.0	-3	-9	-0.8	-5
O=c1[nH]cnc2c1ncn2[C@H]1CC[C@@H](CO)O1	-9%	-2.1	-5.5	-0.2	9	2	0.5	.
Cc1nnc(N/N=C\c2ccc(-c3cccc(C(=O)O)c3)o2)n1N	21%	0.1	-3.9	4.1	-10	0	-4.9	29
Cc1cc(C)c2c(-n3cccc3)n[nH]c2n1	0%	-8.7	.	4.1	10	.	1.4	16
COc1cc([N+](=O)[O-])ccc1NC(=O)COC(=O)c1c[nH]c(=O)[nH]c1=O	3%	.	0.2	0.7	.	-2	-0.4	.
COc1ccc2nc(NC(=O)c3ccccc3O)sc2c1	.	1.8	-1.3	-1.8	12	28	-10	5
CCC(C)[C@H](NC(=O)N1CCCCCC1)C(=O)O (stereo not given in full)	2%	1.3	-9.5	-5.2	-12	-9	1.0	-7
Cc1cccc(C)c1NC(=O)C(=O)NCc1ccccn1	-1%	-1.7	.	0.5	-11	-2	-1.8	-9
O=C1C=C(NC2=CC3OC(c4ccccc4)OCC3OC2=O)CCC1 (stereo not given)	.	6.5	1.8	.	-35	-2	-0.1	1
O=C(Cn1cc(C(F)(F)F)ccc1=O)Nc1cc(S(=O)(=O)N2CCOCC2)ccc1Cl	5%	1.5	1.0	-2.0	-5	.	-0.5	1
COc1ccc(S(=O)(=O)Nc2ncccn2)cc1	.	0.7	-1.6	1.0	0	-1	0.4	-5
Cc1ccc(S(=O)(=O)NC(C)C(=O)NC2CC2)cc1 (stereo not given)	.	4.7	-2.7	5.3	0	-1	-1.2	4
CC(C)c1nc(CNC(=O)CCc2nnc(-c3ccsc3)o2)cs1	.	-2.6	0.4	-2.5	3	3	0.3	-6
Cc1ccc(-n2nnnc2SCC(N)=O)c(C)c1	4%	-1.8	.	-2.8	-1	-6	-0.6	-3
COc1cccc(C2C(C(=O)c3cc4ccccc4o3)=C(O)C(=O)N2CCN(C)C)c1OC (stereo not given)	.	-2.0	.	-1.9	3	-2	-0.2	5
COC(=O)C1(Cc2cc(-c3cccnc3)no2)CCN(C(=O)OC(C)(C)C)CC1	.	-0.4	-5.4	-1.1	-11	-1	0.4	-7
CC(O)CNc1nc2c(c(=O)n(Cc3ccc(Cl)c(Cl)c3)c(=O)n2C)n1C (stereo not given)	-3%	6.2	5.3	0.9	6	-8	-0.3	-1
CCOC(=O)N1CCN(C(=O)c2cccc(OC)c2OC)CC1	4%	-0.3	.	-5.7	-35	-2	-0.3	-8

Profiles as entered above. Order of values: Vif A3G, RanGTP-Impb inh, AF4-AF9 inh, LANA-H2B inh, T cruzi repl, Beta apoptosis, Bfl-1 A1 inh, Calb FLC
Results for `CCOC(=O)N1CCN(C(=O)c2cccc(OC)c2OC)CC1` → 4%, -0.3, ., -5.7, -35, -2, -0.3, -8
Results for `O=C(Cn1cc(C(F)(F)F)ccc1=O)Nc1cc(S(=O)(=O)N2CCOCC2)ccc1Cl` → 5%, 1.5, 1.0, -2.0, -5, ., -0.5, 1
Results for `Cc1ccc(S(=O)(=O)NC(C)C(=O)NC2CC2)cc1` (stereo not given) → ., 4.7, -2.7, 5.3, 0, -1, -1.2, 4
Results for `Cc1ccc(-n2nnnc2SCC(N)=O)c(C)c1` → 4%, -1.8, ., -2.8, -1, -6, -0.6, -3

Going on with the list:
SMILES	Vif A3G	RanGTP-Impb inh	AF4-AF9 inh	LANA-H2B inh	T cruzi repl	Beta apoptosis	Bfl-1 A1 inh	Calb FLC
O=C(c1ccc(Cl)cc1)N1CCc2ccccc21	.	1.5	-15	-3.0	-20	0	-1.4	8
CC1CCCN(S(=O)(=O)c2ccc(C(=O)Nc3nnc(-c4ccccn4)o3)cc2)C1 (stereo not given)	-1%	2.4	1.3	3.4	-14	-25	1.0	-6
O=C(CN1CCN(c2ccccc2)CC1)Nc1ccc(F)cc1	3%	-1.8	-2.3	2.3	-1	-1	0.2	-5
CC1(C)Oc2ccc(C(=O)N3CCCCC3)cc2N(CC(=O)NCc2ccccc2)C1=O	4%	0.1	.	8.5	1	5	0.7	-2
CC(=O)c1cccc(N2C(=NC(=O)C(C)C)SC3CS(=O)(=O)CC32)c1 (stereo not given)	-9%	-0.5	.	0.2	-6	-3	-0.3	?
CCS(=O)c1ccccc1C(=O)OCC(=O)N1CCC(c2ccccc2)=N1 (stereo not given)	.	.	2.2	-1.0	.	-4	-0.8	.
CC(=O)Oc1ccc(C(=O)Cc2ccccn2)c(O)c1	?	5.9	.	-2.6	-17	-5	1.9	4
Cc1nc2ccc(Oc3ccccc3)cc2s1	.	-0.4	0.3	4.2	-5	2	0.1	0

Rows are unselected; any-hit rate near 4.3%.
